Cruzain Triton = inhibitors of Trypanosoma cruzi cruzain with detergent | Potency, µM, for the others: max response, negative = inhibition, usual class: inhibitors | P25779 | 0.43% of 200,000 active | purified cruzain, Z-FR-AMC fluorescence, 0.01% Triton;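 also: plate controls were neutral wells for no effect and buffer without enzyme for full effect; nearly all actives have a fitted effect of over 40% in size; top concentration of the series not given in the record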
Target sequence (P25779 123-467 limits assumed): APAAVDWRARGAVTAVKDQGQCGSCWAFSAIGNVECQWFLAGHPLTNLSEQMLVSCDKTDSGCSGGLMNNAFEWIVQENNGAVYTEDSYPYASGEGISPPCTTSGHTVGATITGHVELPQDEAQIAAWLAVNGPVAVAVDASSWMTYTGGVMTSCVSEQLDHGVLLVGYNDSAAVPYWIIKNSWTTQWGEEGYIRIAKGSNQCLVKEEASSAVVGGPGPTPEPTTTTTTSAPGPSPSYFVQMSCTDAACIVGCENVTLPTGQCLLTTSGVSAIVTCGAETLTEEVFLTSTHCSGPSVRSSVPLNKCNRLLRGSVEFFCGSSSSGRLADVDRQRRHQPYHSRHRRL
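Steps: dispense cruzain (1.5 nM final) in acetate buffer pH 5.5 with DTT and 0.01% Triton X-100; pin-transfer compounds; incubate 15 min RT; add Z-FR-AMC (2 uM final); read fluorescence every 30 s, using the 60 s intensity change.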
SARS PLpro yeast = SARS-CoV PLP inhibition in yeast. S. cerevisiae expressing SARS-CoV PLpro, growth rescue; control for the full effect not named in the record. Potency, µM (doses to about 32.9 µM), inactives show at the highest dose activity, positive = growth rescue. 0.19% of 330,000 active; active means well fitted rising curve with a large enough effect; inconclusive means small, poorly fitted or top-dose-only effect; inactive means no such curve, though single readings can be large or run the other way; also: 0% is about no effect; nearly all actives have a fitted effect of over 55% in size; growth read by luminescence after 48 h
Cruzain noTriton = cruzain (T. cruzi) inhibition without detergent | purified cruzain, Z-FR-AMC fluorescence, no detergent | Potency, µM, for inactives: max response, negative = inhibition, actives largely listed as inhibitors | 2.3% of 200,000 active | AID 1476;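 also: plate controls were enzyme without inhibitor for no effect and buffer without enzyme for full effect; nearly all actives have a fitted effect of over 40% in size; top concentration of the series not given in the record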
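Detergent-free condition (0.00005% Triton X-100) in acetate buffer pH 5.5 with DTT. 1.5 nM enzyme and compound were pre-mixed 15 min, then 2 uM Z-FR-AMC substrate added; reaction progress from fluorescence change between first and third reads (60 s).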
RE007 growth inh = less growth of the S. pombe RE007 Vpr strain | S. pombe RE007 Vpr strain, BacTiter-Glo ATP luminescence, 24 h; control for the full effect not named in the record | Potency, µM (doses to about 92.2 µM), for the others: at the highest dose activity change, negative = less growth | 0.21% of 360,000 active; active = well fitted falling curve with a large enough effect; inconclusive = small, poorly fitted or top-dose-only effect; inactive = no such curve, though single readings can be large or run the other way;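 also: % is scaled to controls: 0 for no effect and ±100 for the full control effect; nearly all actives have a fitted effect of over 50% in size; the assay follows cell death caused by Vpr and the record does not say whether a fall means rescue or toxicity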
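Fission yeast RE007 carrying one integrated HIV-1 vpr copy, seeded at OD 0.01 in PMG+AL medium with 23 nL pinned compound. Grown 24 h at 30 degrees; viability read by BacTiter-Glo luminescence after 5 min.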
Marburg entry inh = inhibitors of Marburg virus binding or cell entry; Marburg virus pseudotyped entry inhibition, cell reporter; control for the full effect not named in the record; about a third of the inactives were read at about 46 µM; Potency, µM (top dose mostly 37.8 µM), for the others: at the top dose activity change, negative = inhibition, most hits filed as inhibitors; 1.8% of 300,000 active; AID 540276; active = well fitted inhibition curve with a large enough effect; inconclusive = small, poorly fitted or top-dose-only effect, or effect the other way; inactive = flat fitted curve, though single readings scatter; tested in HEK293 cells; about a fifth of its hits are not listed in these tables; also: % is scaled to controls: 0 for no effect and ±100 for the full control effect; luciferase read-out
NS1 function inh = inhibitors of influenza NS1 protein function | S. cerevisiae slowed by influenza A NS1, growth recovery by OD600 | Potency, µM (titrated, usually from 46.1 µM), without a hit: at the top dose activity, positive = more growth | 0.4% of 270,000 active | AID 2326; active means well fitted rising curve with a large enough effect; inconclusive means small, poorly fitted or top-dose-only effect; inactive means no such curve, though single readings can be large or run the other way; also: nearly all actives have a fitted effect of over 50% in size
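Compounds were scored for reversing the slow growth caused by influenza A NS1 in S. cerevisiae, measured by optical density at 600 nm. Assay medium contained 2% galactose at pH 6.0; NS1-free yeast of the same strain were the positive control.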
StopGo reporter = FMDV 2A StopGo reporter, luciferase signal; AID 1159524; Potency, µM (top dose mostly 57.9 µM), for inactives: at the highest dose signal change, negative = less light; human cells with a luciferase reporter of 2A StopGo recoding; control for the full effect not named in the record; 1.2% of 410,000 active; active = well fitted falling curve with a large enough effect; inconclusive = small, poorly fitted or top-dose-only effect; inactive = no such curve, though single readings can be large or run the other way; tested in HEK293T cells; also: % is scaled to controls: 0 for no effect and ±100 for the full control effect; nearly all actives have a fitted effect of over 45% in size; luciferase light after 4 h
Lassa entry inh = blocks Lassa virus binding to or entry into cells | Lassa virus pseudotype entry inhibition, cell reporter; control for the full effect not named in the record | Potency, µM (doses to about 37.9 µM), for inactives: at the highest dose activity change, negative = inhibition, usual class: inhibitors | 1.2% of 300,000 active; active means well fitted inhibition curve with a large enough effect; inconclusive means small, poorly fitted or top-dose-only effect, or effect the other way; inactive means flat fitted curve, though single readings scatter; tested in HEK293 cells; also: % is scaled to controls: 0 for no effect and ±100 for the full control effect; nearly all actives have a fitted effect of over 50% in size; luciferase read-out
* hit, by the source's call; ? = inconclusive; . = not tested or not shown; & = joins results of further samples; [ ] = dose if it differs, or a comment. Unless noted, calls follow the shape of the dose curve; as a rule, active = well fitted curve in the direction sought with a large enough effect; inconclusive = small, poorly fitted or top-dose-only effect, or another doubt; inactive = no such curve, though single readings can be large; an effect the other way counts as inactive or inconclusive. Potency is read from the fitted curve at half-maximal effect. Rows were taken by chance; 4.8% or so of the library scored in one or more.

SMILES	Cruzain Triton	SARS PLpro yeast	Cruzain noTriton	RE007 growth inh	Marburg entry inh	NS1 function inh	StopGo reporter	Lassa entry inh
CCOC(=O)COc1ccc(S(=O)(=O)Nc2ccc(C)cc2)cc1	-0.1%	-14%	-4%	-15%	4%	-86%	23%	0%
COC1(NC(=O)c2ccccc2)C(C)=CC(=O)C=C1C	.	3%	.	-3%	1%[46.1 µM]	.	-10%	-3%
Nc1ccc(-c2cc3ccccc3oc2=O)cc1	.	-1%	.	-21%	?	-9%	1.1µM*	0.71µM*
COc1ccc(S(=O)(=O)N2CC(=O)Nc3ccccc32)cc1	.	-2%	.	-14%	.	-1%	-1%	.
Cc1cc(C)nc(SCC(=O)Nc2sc3c(c2C#N)CCC(C)C3)n1 (stereo not drawn)	.	.	.	-12%	?	.	?	-23%
CCOC(=O)c1c(S(=O)(=O)N2CCN(c3cc(Cl)ccc3C)CC2)c(C)n(C)c1C	-4.1%	.	5%	.	.	.	2%	4%[46.1 µM]
Cc1ccc(S(=O)(=O)Nc2ccc(N3CCOCC3)cc2)cc1[N+](=O)[O-]	.	-1%	.	0%	-3%[46.1 µM]	7%	-11%	-12%
COC(=O)c1c(NC(=O)c2cccc(OC)c2)sc2c1CCC(C(C)(C)C)C2 (stereo not drawn)	-2.8%	.	2%	.	.	.	-14%	4%[46.1 µM]
COc1cc2nc(SCc3c(C)noc3C)n(CCC3=CCCCC3)c(=O)c2cc1OC	-2.5%	-1%	?	0%	?	-17%	?	?
Cc1cc(-c2ccccc2)n2nc(C)c(C#N)c2n1	2.0%	-8%	11%	8%	-21%	-86%	-16%	-11%
Cc1cccc(NC(=O)C2(c3cccs3)CCOCC2)c1	2.0%	?	0%	1%	-1%	?	-12%	-2%
COCCNC(=O)CCCn1c(SCC(=O)c2ccc(F)cc2)nc2c(sc3ccccc32)c1=O	1.2%	.	-1%	.	-1%[46.1 µM]	.	-11%	23%[46.1 µM]
N#Cc1ccc(-c2cccnc2)nc1SCC(=O)Nc1sc2c(c1C#N)CCC2	2.6%	6%	-1%	-10%	-23%&-23%	14%	-18%	3%
Cc1ccc(NC(=O)Nc2ccc3c(c2)OCO3)cc1F	.	5%	.	-3%	.	-3%	62%[activator]	.
O=C(c1ccc(Cl)cc1Cl)N1CCN(c2ccccn2)CC1	.	2%	.	9%	-28%	-10%	-22%	?
CC(NCc1ccc2c(c1)OCO2)C(=O)NC1CCCc2ccccc21 (stereo not drawn)	11%	5%	2%	0%	-6%	-3%	-12%	2%
CCCCn1c(SCC(=O)Nc2cccc(OC)c2)nc2c(sc3ccccc32)c1=O	0.9%	.	2%	.	.	.	25%	24%[46.1 µM]
Cc1sc2ncnc(N3CCC(C(=O)NNC(=O)COc4ccccc4F)CC3)c2c1C	.	-7%	.	2%	-21%	.	25µM*	-6%
O=C(O)CN(c1ccccn1)S(=O)(=O)c1ccccc1	-3.3%	-2%	-2%	4%	-18%[46.1 µM]	8%	-23%	7%
CCOC(=O)CN1C(=O)c2ccccc2C1=O	2.3%	2%	-3%	15%	5%	-2%	10%	1%
O=C(OCc1cc(=O)n2nc(C3CCCCC3)sc2n1)c1ccc(F)cc1	0.3%	.	0%	.	.	.	-12%	4%[46.1 µM]
CC(=O)c1ccc(NC(=O)CSc2nnc3ccc(-c4ccc(Br)cc4)nn23)cc1	0.3%	.	9%	.	.	.	-6%	-6%[46.1 µM]
COc1ccccc1NC(=O)COc1ccccc1C(=O)c1cnn(-c2ccccc2)c1	-6.2%	8%	7%	-22%	-5%	7%	57%[activator]	.
Cc1ccc(-c2cc(C(=O)N3CCC4(CC3)OCCO4)no2)cc1	.	-2%	.	4%	?	-7%	17%	16%
COc1ccc(NC(=O)N2CCCCC2)cc1	4.2%	-6%	0%	5%	19%	12%	0%	9%
CCCC(OC(=O)CC1Sc2ccccc2NC1=O)C(=O)NCc1ccco1 (stereo not drawn)	-17%	1%	-25%	-4%	?	-7%	.	?
C/C(=C\c1ccc(N)cc1)c1nc2ccccc2[nH]1	.	-1%	.	9%	.	-1%	47%[activator]	.
COc1ccc(NC(=O)c2cc3c(=O)n(C)c4ccccc4c3s2)cc1Cl	-0.7%	.	15%	.	-10%[46.1 µM]	.	-4%	3%[46.1 µM]
CCc1ccc2cccc3c2c1N=CN3C	.	.	.	-30%	-2%[46.1 µM]	.	0%	14%
Cn1c(=O)oc2cc(S(=O)(=O)N3CCCC(C(=O)NCc4ccc5c(c4)OCO5)C3)ccc21 (stereo not drawn)	-1.6%	2%	-7%	-3%	.	-4%	?	.

Limited to Lassa entry inh and Marburg entry inh, for four of the compounds above:
canonical_smiles	Lassa entry inh	Marburg entry inh
CC(=O)c1ccc(NC(=O)CSc2nnc3ccc(-c4ccc(Br)cc4)nn23)cc1	-6%[46.1 µM]	.
COc1ccccc1NC(=O)COc1ccccc1C(=O)c1cnn(-c2ccccc2)c1	.	-5%
Cc1ccc(-c2cc(C(=O)N3CCC4(CC3)OCCO4)no2)cc1	16%	?
COc1ccc(NC(=O)N2CCCCC2)cc1	9%	19%

(cont.)
SMILES	Cruzain Triton	SARS PLpro yeast	Cruzain noTriton	RE007 growth inh	Marburg entry inh	NS1 function inh	StopGo reporter	Lassa entry inh
CC(c1ccccc1)n1cnc2ccccc21 (stereo not drawn)	3.0%	0%	-8%	5%	-4%	-12%	-5%	-4%
COc1ccc(S(=O)(=O)Nc2cccc(-c3ccc(N4CCCC4)nn3)c2)c(OC)c1	-6.2%	.	4%	.	.	.	33%[activator]	-6%[46.1 µM]
COCCn1nnnc1SCC(=O)c1ccccc1	3.6%	-4%	-5%	-23%	13%	-2%	42%[activator]	25%
CC(OC(=O)c1cc(=O)[nH]c2ccccc12)C(=O)N1C(C)CCCC1C (stereo not drawn)	.	-6%	.	27%	?	.	-3%	5%
Nc1nc(C(=O)N2CCOCC2)nn1S(=O)(=O)c1ccccc1	4.7%	-5%	-10%	7%	-8%	1%	-11%	3%
N[C@@H](CCCC(=O)O)C(=O)O	1.9%	.	?	.	?	-6%	.	?
Cc1cc(-c2onc(C)c2C(=O)O)no1	.	0%	.	7%	14%	2%	-1%	?
CC(C)Oc1cccc(C(=O)Nc2ccc(CN3CCOCC3)cc2)c1	0.6%	1%	-6%	-2%	-15%	-5%	0%	-10%
CCN(CC(=O)NCc1cccs1)C(=O)c1cccc(S(=O)(=O)N2CCc3ccccc32)c1	.	0%	.	-2%	-20%[46.1 µM]	-8%	33%[activator]	?
COC(=O)C(O)(CC(=O)Nc1ccc(Cl)cc1F)C(F)(F)F (stereo not drawn)	1.2%	3%	-2%	-10%	11%	-1%	.	-1%
CCOc1cc2c(cc1OCC)-n1cccc1C(c1ccc(OC)cc1)NC2 (stereo not drawn)	.	1%	.	-1%	?	2%	-24%	?
O=C1CCC[C@@H]2Cc3[nH]c4c(Cl)ccc(Cl)c4c3[C@@H]3CCN1[C@H]23	.	-2%	.	-2%	.	-9%	-30%	.
Oc1ccc(C=NNC(=S)Nc2cccnc2)nc1	.	.	.	?	?	.	27%	10µM*
O=C(c1cc2cc(F)ccc2[nH]1)N1CCc2ccccc2C1	.	-10%	.	-23%	.	-16%	44%[activator]	.
CSc1ccc(CNc2nc3ccccc3n3cnnc23)cc1	.	-1%	.	1%	1%[46.1 µM]	-3%	48%[activator]	-1%
Cc1cccc(C)c1NC(=O)N1C2CCC1CC(O)(c1cccnc1)C2 (stereo not drawn)	.	-4%	.	-13%	3%	.	-10%	4%
Cc1ccc(NNC(=O)c2cc(C)on2)c(C)c1	.	-2%	.	56%	-1%	-7%	-9%	-17%
CCCn1c(CN2CCN(c3ccc(OC)cc3)CC2)nc2c1c(=O)[nH]c(=O)n2C	-0.3%	.	6%	.	2%[46.1 µM]	.	0%	0%[46.1 µM]
CN(C)c1ccc(/C=N\NC(=O)c2ccc(Cn3cc(Cl)cn3)cc2)cc1	-9.1%	-3%	-7%	4%	?	-25%	5%	?
Cn1nc(-c2ccc(S(N)(=O)=O)s2)cc1C(F)(F)F	.	0%	.	0%	4%[46.1 µM]	-3%	-9%	-18%
CCCCOc1ccc(C(=O)Nc2nc3c(s2)CC(C)CC3)cc1 (stereo not drawn)	-3.3%	.	15%	.	-9%[46.1 µM]	.	?	29%[46.1 µM]
COc1cccc(CN(CC(=O)NC2CCCC2)C(=O)c2csnn2)c1	.	0%	.	1%	1%[46.1 µM]	4%	52%[activator]	-24%
CC1CCN(c2ccccc2NC(=S)NC(=O)c2ccco2)CC1	.	.	.	-3%	?	.	-21%	-7%
Cc1cc(C)c(S(=O)(=O)c2ccccc2C)c(SCC(C)C)n1	-0.4%	-8%	-1%	13%	?	-10%	-9%	0%
Cc1cnc(NC(=O)CSc2nnc(COc3c(C)cccc3C)o2)s1	-4.3%	0%	-6%	-13%	1%&1%	0%	0%	-2%
Cc1ccc(C2CC(=O)Nc3c2c(C)nn3-c2nc(C)cc(C)n2)c(C)c1 (stereo not drawn)	1.5%	.	-2%	.	-26%[46.1 µM]	.	0%	6%[46.1 µM]
Cc1ccc(NC(=O)CN2c3ccccc3S(=O)(=O)c3ccccc32)cc1F	-8.7%	.	?	.	?	.	-15%	2%[46.1 µM]
C=CCOC(=O)C1=C[C@@H](c2ccccc2)C[C@@H](OCc2ccc(CO)cc2)O1	.	-3%	.	-2%	.	-9%	-6%	.
CCOc1ccc(S(=O)(=O)Nc2ccc3c(c2)c2c(n3S(=O)(=O)c3ccc(OCC)cc3)CCCC2=O)cc1	-0.9%	6%	7.9µM*	.	30%	9%	.	4%
COc1ccccc1C(=O)Nc1ccccc1N1CCOCC1	2.0%	1%	-4%	-2%	3%	-18%	?	-1%

Screens deposited in PubChem BioAssay by National Center for Advancing Translational Sciences (NCATS).
